Source: PubChem BioAssay (several laboratories)
Mtb hypoxia inh – Mtb hypoxia fluorescent reporter inhibition; 300,000 compounds, 0.1% hits; AID 1159583; fluorescence inhibition, % (no concentration beside the values); M. tuberculosis hypoxia-regulated fluorescent reporter, fluorescence;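 active means 35 to 45% if threefold the growth effect, above 45% if 1.5-fold the growth effect; inactive means the rest, general growth blockers included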;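 further: wells of about 50 µL received 100 nL stock; 0% = vehicle wells and 100% = reference inhibitor wells; whole bacteria with a GFP reporter of the hypoxia response; strong numbers were not always called active; many hits fall short of the cut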
BJeLR lethal – kills HRASV12-expressing BJeLR cells; 300,000 compounds, 0.17% hits; inhibition, % (concentration not given with the values); BJeLR (HRASV12) viability, CellTiter-Glo ATP luminescence, 48 h; reference of the scale not given here; AID 1554;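 active means replicate mean above 50%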;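 further: 50 nL library stock added to about 25 µL; numbers are from one replicate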
Autofluor counter – flagged as autofluorescent in microsphere protease counterscreen; compound autofluorescence counterscreen, microsphere flow cytometry; stronger effect = higher value; fluorescence intensity (concentration not given with the values); 360,000 compounds, 3.1% hits; AID 624483;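 active means at least 3 SD above the mean of all compounds, about 16000 in these data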;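 further: 100 nL of 1 mM stock went into each well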
Sa ugtP lethal – compounds lethal to S. aureus RN4220 ugtP deletion mutant. OD600 growth, 16 h; some inactives read as strong as hits. growth inhibition, % (concentration not given with the values). 330,000 compounds, 0.54% hits;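 active means z-score under -3 and OD600 up to 0.15 on both plates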;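 further: plate controls were untreated wells for no effect and antibiotic for full effect; wells of about 80 µL received 100 nL stock; the first replicate is given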
PrP 5UTR inh – suppresses PrP 5' UTR mRNA reporter expression | cell-based PrP 5' UTR mRNA reporter, plate reader | 340,000 compounds, 0.35% hits | inhibition, % (test concentration not listed);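 active means every replicate at 50% or more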;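 further: 0 = median of the neutral control wells; tested in H4 reporter cells; numbers are from one replicate; inactives centre near -14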
Sa RN4220 lethal – kills Staphylococcus aureus RN4220 | S. aureus RN4220 growth, OD600, 16 h | AID 1259311 | inhibition, % (no concentration beside the values) | 330,000 compounds, 0.33% hits;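 active means z-score of -3 or lower and OD600 up to 0.18 on both plates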;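 further: plate controls were untreated cells for no effect and reference antibiotic for full effect; stock transfer was 100 nL into about 80 µL; one replicate is shown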
Mtb hypoxia inh growth – further read-out of Mtb hypoxia inh, marked with its call; growth inhibition, %; measured here: M. tuberculosis growth (absorbance);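 0% = vehicle and 100% = reference antibiotic; read after six days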
* = called active by the depositor; / = no result given.

Values run as follows: Mtb hypoxia inh	Mtb hypoxia inh growth	BJeLR lethal	Autofluor counter	Sa ugtP lethal	PrP 5UTR inh	Sa RN4220 lethal
COc1ccc(O)c(CN2CCC(n3nccc3NC(=O)C3CCCC3)CC2)c1
    -4	1	-2	5500	3	-10	4.5
Cc1ccc(/C=C/C(=O)c2c(C)cc(C)[nH]c2=O)cc1
    3	6	-8	10678	1	-5	6.1
Cc1ccc(C2=NC(=O)/C(=C/c3cc(O)c(O)c(Br)c3)S2)cc1
    20	-14	/	3971	-6	-30	23
Cc1ccc(S(=O)(=O)NCc2c(-c3ccccc3)c3cc(Cl)ccc3[nH]c2=O)cc1
    7	0	-5	2527	-24	-33	-1.9
O=C(O)C(Cc1ccc(Cl)cc1)Sc1nc2ccccc2[nH]1 (stereo unspecified)
    6	-10	7	2966	5	-19	-0.3
CC(C)CCN(C(=O)Nc1ccc(Cl)cc1)C1CCN(C(C)C)CC1
    8	2	-5	3117	5	-10	-2.8
O=C1c2cccnc2C(Nc2ccc(Br)cc2Br)N1Cc1cccs1 (stereo unspecified)
    -10	5	8	/	1	/	10
N#CC1=C(C2CC2)CC(c2ccccc2)C(C#N)=C1N (stereo unspecified)
    /	/	4	3678	0	-23	0.9
COc1ccc(CNc2nc3nc(C)cc(C)n3n2)cc1
    4	10	9	23427*	-1	-20	1.5
CN(Cc1ccc(CNC[C@H]2O[C@@H](n3cnc4c(N)ncnc43)[C@H](O)[C@@H]2O)o1)S(C)(=O)=O
    -1	2	/	3030	12	-16	5.3
COc1ccccc1N(CC(=O)NCC1CCCO1)C(=O)CNS(=O)(=O)c1ccccc1 (stereo unspecified)
    11	3	6	4794	-2	-28	2.6
O=C(Nc1ccccc1)c1ccc(Br)o1
    6	7	3	3025	-5	-12	9.4
CN1CCN(C=Nc2sc3c(c2C#N)CCCCC3)CC1
    7	15	/	/	19	/	9.6
Cc1ccc(CN2CCSc3ccc(C(=O)NCC4CCCO4)cc32)cc1 (stereo unspecified)
    7	4	7	5759	2	-16	-0.2
CS(=O)CCC(NS(=O)(=O)c1ccccc1)C(=O)O (stereo unspecified)
    4	3	1	10280	2	-50	5.0
O=C(NCc1ccc2c(c1)OCO2)C(=O)NCC1OCCCN1S(=O)(=O)c1cc(F)ccc1F (stereo unspecified)
    14	2	-5	6849	-6	-3	4.7
Cc1ccc(N2CCN(N=Cc3c(C)nn(-c4ccccc4)c3Cl)CC2)cc1
    -2	10	/	/	9	/	2.4
Cn1c(CSCc2ccccc2)n[nH]c1=S
    3	5	-19	9487	1	-19	4.9
CN(C)CCCC(C)(O)C(Cc1ccccc1)c1ccccc1 (stereo unspecified)
    4	-4	-1	10198	6	-14	1.2
CCc1ccc(-c2nc(CN3CCC(C(=O)N4CCN(c5ccccc5)CC4)CC3)c(C)o2)cc1
    5	10	-3	7297	3	10	2.2
Nc1ccc(S(=O)(=O)Nc2nc3ccccc3o2)cc1
    75*	47*	8	4194	16	-26	-0.9
CC1(C)CN=C(Nc2ccc(F)c(Cl)c2)S1
    -5	-10	2	6437	7	-11	7.2
O=C(NC1CCCC1)C(c1ccc(F)cc1)N(Cc1ccccc1Cl)C(=O)CCl (stereo unspecified)
    -3	-2	10	7351	6	-6	17
Cc1ccccc1NC(=O)COC(=O)/C=C/c1cccc(C(F)(F)F)c1
    8	7	2	2494	2	-22	3.7
Cc1ccc(C)c(N2C(=O)CS/C2=N\NC(=O)c2ccccc2Cl)c1
    /	/	-3	9520	/	-8	/
CCOC(=O)c1c(NC(=O)C(=O)NN=Cc2ccccc2O)sc2c1CCCCC2
    1	3	/	/	10	/	-2.1
CC(=O)OCCc1c(C)nc2nc[nH]n2c1=O
    /	/	6	3326	2	-27	6.2
CC(=O)Nc1ccc(OC(=O)N2CCCC2)cc1
    0	4	5	3820	0	-23	0.3
CCOc1ccccc1C1C(C#N)=C(N)N(N(C)C)C2=C1C(=O)CCC2 (stereo unspecified)
    12	10	1	3599	22	-4	3.8
Cc1csc(NC(=O)C(F)(F)F)n1
    -1	2	-14	8834	-2	-27	3.5

(list continues)
Values run as follows: Mtb hypoxia inh	Mtb hypoxia inh growth	BJeLR lethal	Autofluor counter	Sa ugtP lethal	PrP 5UTR inh	Sa RN4220 lethal
CS(=O)(=O)N(CC(=O)N1CCCC1)c1cc(Cl)c(Cl)cc1Cl
    7	3	2	22315*	9	-23	7.6
Cc1ccc(C(=O)Nc2nnc(C3=COCCO3)o2)cc1C
    /	/	-4	6328	/	-15	/
COc1cc(C)nc(N2CCCC(C(=O)NC3CCC(C)CC3)C2)n1 (stereo unspecified)
    10	6	2	/	7	/	4.5
COc1ccc(/C=N/NC(=O)CCCOc2ccc(Cl)cc2Cl)cc1
    /	/	-5	2637	/	-13	/
CCCCn1c(C)c(C(=O)OCC)c2c(CN3CCCC3)c(O)ccc21
    1	0	8	4203	-7	-24	1.4
CCc1cc(=O)oc2c(C)c(OC(C)C(=O)NC3CC(C)(C)NC(C)(C)C3)ccc12 (stereo unspecified)
    5	-1	13	5115	13	-18	1.0
COC(=O)c1c(C)nc(C)c(C(=O)OC)c1-c1ccc(OC)cc1
    -2	-7	-18	3740	4	-8	3.5
CCOC(=O)C1C2COc3ccccc3C2N2C(=O)N(c3ccc(Br)cc3)C(=O)[C@]12C (stereo partly specified)
    3	2	/	/	-18	/	-1.3
CCCCNc1ccc2oc(-c3ccc(OC)cc3)c(-c3ccc(OC)c(F)c3)c2c1
    3	8	/	3966	6	-22	-0.4
COC(=O)Cc1c(C)c2ccc(OCC(=O)c3ccc(OC)c(OC)c3)cc2oc1=O
    -1	4	11	/	19	/	-0.7
Cc1ccc(CCN2CC(C(=O)NCCc3ccccc3)CC2=O)cc1 (stereo unspecified)
    7	5	9	5836	1	-17	-1.5
Cn1c(SCC(=O)NC2CCCC2)nnc1-c1ccncc1
    7	8	-3	4357	10	-6	3.9
Fc1ccc(COc2ccccc2C(=S)N2CCCC2)cc1
    5	8	3	2452	4	-107	-2.2
Cc1cc(SCC(=O)Nc2ccccc2)n2ncc(-c3ccccc3)c2n1
    -6	-12	-2	4825	-14	-19	2.0
CCOC(=O)CN(C(=O)CSc1nnc2c(n1)[nH]c1ccccc12)c1ccccc1
    9	9	-5	9837	-2	-20	4.9
Cc1cc(C(=O)OCC(=O)N2CCc3ccccc32)ccc1[N+](=O)[O-]
    -2	10	/	3355	3	-17	2.1
COC(=O)c1ccccc1NC(=O)CSc1nncn1-c1cccnc1
    14	-3	1	3120	15	-31	2.0
O=C1NC2(CCOc3ccccc32)C(=O)N1CC(=O)N(Cc1ccccc1)C1CCS(=O)(=O)C1 (stereo unspecified)
    /	/	2	3659	14	-6	2.4
O=c1c2cc(NC(=S)NCCN3CCCCCC3)ccc2nc2n1CCCCC2
    5	0	-3	4677	2	-20	5.9
CC(C)Oc1ccc(Nc2ncnc3ccccc23)cc1
    -5	-2	3	2133	-6	-73	2.6
COc1ccccc1NC(=O)c1sc2nc(C)cc(C)c2c1N
    -5	3	3	4497	6	-29	13
COc1ccc(C(=O)CCC(C)(C)[N+](=O)[O-])cc1
    16	16	-9	4063	6	-15	12
COc1ccc(N2CCN(CCNC(=O)Nc3cc(Cl)ccc3Cl)CC2)cc1
    6	8	0	3505	17	-10	-1.1
CCOC(=O)CSc1nc(C)cc(=O)[nH]1
    2	-6	3	7885	14	-18	7.1
Cc1ccc(N2CC(C(=O)OCC(=O)c3ccc[nH]3)CC2=O)cc1 (stereo unspecified)
    7	12	7	6437	2	-12	3.0
O=C(O)CCN(CC(=O)c1ccc(Cl)cc1)S(=O)(=O)c1ccc([N+](=O)[O-])cc1
    9	13	/	4170	4	-8	6.6
COc1ccc(OCCN2CCN(C(=O)c3ccc(OC)c(OC)c3)CC2)cc1
    4	-4	8	3245	10	-28	0.4
O=c1c2ccccc2sc2ccc(C#CC3(O)CCCCC3)cc12
    -2	-1	11	3800	1	92*	-5.9
COc1ccc(C2CC(c3ccc(Cl)cc3)=NN2c2ccc(S(N)(=O)=O)cc2)cc1 (stereo unspecified)
    1	3	/	3590	40	-23	94*
O=C(CN1CCC(C(=O)c2ccc(Cl)cc2)CC1)NC1CCCC1
    13	1	6	3229	8	-23	5.5

3 structures from above, sorted by length of the SMILES, smallest number first.
Values run as follows: Mtb hypoxia inh	Mtb hypoxia inh growth	BJeLR lethal	Autofluor counter	Sa ugtP lethal	PrP 5UTR inh	Sa RN4220 lethal
O=C(CN1CCC(C(=O)c2ccc(Cl)cc2)CC1)NC1CCCC1
    13	1	6	3229	8	-23	5.5
COC(=O)c1c(C)nc(C)c(C(=O)OC)c1-c1ccc(OC)cc1
    -2	-7	-18	3740	4	-8	3.5
CCOC(=O)C1C2COc3ccccc3C2N2C(=O)N(c3ccc(Br)cc3)C(=O)[C@]12C (stereo partly specified)
    3	2	/	/	-18	/	-1.3

Carrying on:
Values run as follows: Mtb hypoxia inh	Mtb hypoxia inh growth	BJeLR lethal	Autofluor counter	Sa ugtP lethal	PrP 5UTR inh	Sa RN4220 lethal
COc1ccc(CN2C(CC(=O)O)c3cc(C(F)(F)F)ccc3S2(=O)=O)cc1 (stereo unspecified)
    16	9	/	/	6	/	6.9
Cc1nn(CC(=O)N2CCN(c3ccccc3)CC2)c(=O)c2ccccc12
    -18	-2	-7	3680	0	-4	3.2
FC(F)(F)c1cc(-c2ccco2)nc(N2CCN(Cc3ccccc3)CC2)n1
    -3	2	-4	21755*	54	-17	-8.3
COC(=O)C1CCN(C(=O)COC(=O)CNS(=O)(=O)c2ccc(SC)c([N+](=O)[O-])c2)CC1
    8	-1	4	5837	0	-29	1.2
CC(C)c1nnc(NC(=O)CCC(=O)N2CCN(c3ccccc3F)CC2)s1
    13	6	-9	6227	0	-6	2.3
Cc1ccc(N2CCN(CCc3ccccc3)CC2)cc1
    4	7	/	10241	1	-23	15
O=C(O)CSC1=NC(=Nc2ccc(Cl)cc2)C2(CCCCC2)N1c1cccc(C(=O)O)c1
    2	1	-1	2555	0	-10	3.0
CC(C)CN(C(=O)COC(=O)/C=C/c1ccccc1)C1CCS(=O)(=O)C1 (stereo unspecified)
    13	-1	/	/	0	-12	3.0
Cc1ccc(CN2CCN(Cc3cccn3-c3ccccn3)CC2CCO)cc1 (stereo unspecified)
    13	9	1	2409	2	-29	2.0
CC1=C(N2CCN(c3ncccn3)CC2)CCC1=O
    8	9	8	3831	3	-13	2.4
Cc1ccccc1-n1ncc2c(SCC(=O)N3c4ccccc4CC3C)ncnc21 (stereo unspecified)
    1	5	-1	10807	11	-36	-5.8
COc1ccc(NC(=O)C2CCN(c3cc(-c4ccccc4)nc4ncnn34)CC2)cc1OC
    2	20	/	20978*	-8	-10	3.6
CC(C)(C)c1ccc(Oc2ccc(NC(=O)c3cccs3)cn2)cc1
    -13	-3	0	4579	65	-8	-3.8
Cc1ccc2nc(SCc3cn4c(C)cc(C)nc4n3)[nH]c2c1
    5	4	-9	/	5	/	1.5
COc1cc(C=NNC(=S)Nc2cccc(C(=O)O)c2)ccc1O
    7	8	/	/	4	/	2.5
CC1Oc2ccccc2N(Cc2ccc(F)cc2)C1=O (stereo unspecified)
    12	10	-8	3343	3	-10	-0.6
Cc1ccc(S(=O)(=O)N2CCC(=O)N(C(CO)C(C)C)CC2)cc1 (stereo unspecified)
    6	1	3	3947	-7	-15	-11
O=c1c(-c2ccc3c(c2)OCCO3)coc2cc(O)cc(O)c12
    5	12	0	8927	-8	-57	11
O=C(CSc1ccc(-c2ccco2)nn1)NCc1ccc2c(c1)OCO2
    3	4	-3	3161	4	-23	6.0
COc1ccc(C(=O)NCc2nnc(SCC(=O)c3ccccc3)n2C)cc1
    11	2	15	3715	2	-28	8.7
COc1ccc(NC(=O)COC(=O)[C@@H]2CCCN2S(=O)(=O)c2ccccc2F)c(OC)c1
    5	-7	2	4260	2	-16	2.9
COc1ccc(NC(=O)/C(C#N)=C\c2cc(C)n(-c3ccc4c(c3)OCO4)c2C)cc1
    1	4	-11	2801	-10	-25	-5.3
COc1cc(C(=O)N/N=C\c2ccccc2)c([N+](=O)[O-])c(OC)c1OC
    /	/	-5	6509	/	12	/
O=C(NCc1ccco1)C1CCCN(S(=O)(=O)c2ccccc2)C1 (stereo unspecified)
    2	12	3	21190*	3	-3	0.8
